HCMV UL50-53 inh: cytomegalovirus nuclear egress complex inhibition | HTRF UL50-UL53 interaction, normalized percent inhibition | inhibition, % (no concentration beside the values) | 0.15% of 190,000 active;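 active = both replicates at 50% or more, plus weaker picks with an unusually low signal ratio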;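 also: stock transfer was 100 nL into about 20 µL; 0% = negative control wells and 100% = wells with untagged competitor protein; inactives centre near -12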
GIV Gai3 FP: GIV-Galpha-i interaction inhibition | P08753 | Galpha-i3/FITC-GIV peptide fluorescence polarization, 90 min; stronger effect = lower value; scaled: aluminum fluoride 0%, vehicle 100% | percent of control (FP), % (no concentration beside the values) | 0.42% of 210,000 active | AID 1224905;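 active = replicate mean at 85% of control or lower, very high polarization wells dropped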;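 also: wells of about 15 µL received 100 nL stock; the first replicate is given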
Target sequence (P08753 whole entry, looked up): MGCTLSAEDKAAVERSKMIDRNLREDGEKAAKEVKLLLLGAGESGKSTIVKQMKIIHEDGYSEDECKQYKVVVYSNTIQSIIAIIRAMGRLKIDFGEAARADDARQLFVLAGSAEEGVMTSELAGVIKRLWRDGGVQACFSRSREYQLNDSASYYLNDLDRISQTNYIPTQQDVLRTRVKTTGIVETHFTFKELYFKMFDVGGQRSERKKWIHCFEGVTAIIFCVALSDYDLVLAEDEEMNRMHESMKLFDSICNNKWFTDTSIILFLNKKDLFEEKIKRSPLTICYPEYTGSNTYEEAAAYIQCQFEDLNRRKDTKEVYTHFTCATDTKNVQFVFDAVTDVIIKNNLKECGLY
Sa growth inh: blocks Staphylococcus aureus growth; S. aureus RN4220 growth, OD600, 20 h, 42 °C; stronger effect = lower value; relative growth, % (concentration not given with the values); 0.53% of 170,000 active;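 active = growth at 42 °C up to 50% and 20 or more points under that at 30 °C, or under 10% at both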;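 also: 300 nL library stock went into each well; scaled to the means of positive and negative controls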
Sa growth inh second temp: also measured in Sa growth inh; calls as there; relative growth, %; measured here: growth at 30 °C;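 optical density after 20 h as mean of two plates; 100% = untreated growth and lower means inhibition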
Active calls of the source: *; / = no result given; & = joins results of further samples. An unsorted share of the library; any-hit rate near 0.82%.

molecule	HCMV UL50-53 inh	GIV Gai3 FP	Sa growth inh	Sa growth inh second temp
COc1cccc(NC(=O)CCc2nc(-c3cc(OC)c(OC)c(OC)c3)no2)c1	5	108	107	83
CCOc1ccc(N(c2nc(-c3ccc(OC)c(OC)c3)no2)c2nc(-c3ccc(OC)c(OC)c3)no2)cc1	-12	101	100	97
O=S(=O)(NCC(c1ccccc1)N1CCc2ccccc21)c1ccccc1 (centres undefined)	-19	102	88	65
CSc1nc2n(n1)C(c1ccccc1)C=C(C)N2 (centres undefined)	4	/	137	83
COc1ccccc1-n1nnnc1SCC(=O)NC1CCCC1	3	103	110	86
Cc1cc(-c2ccc(C)c(S(=O)(=O)N3CCN(CCOc4ccc(Cl)cc4)CC3)c2)on1	7	103	96	108
Cc1cccc(C2c3c(n(C)c(=O)n(C)c3=O)N=C3c4ccccc4C(=O)C32)c1 (centres undefined)	-30	100	85	88
COc1ccc(C(=O)OCCCN(C2=NS(=O)(=O)c3ccccc32)c2ccccc2)cc1	15	101	/	/
CC(C)c1ccc(Nc2c(-c3ccc(N4CCOCC4)cc3)nc3ncccn23)cc1	3&-11	103&104	103	94
CCN(CC)C(=O)/C=C/c1ccc2c(c1)OCO2	/	102	102	81
CS/C(=N\S(=O)(=O)c1ccccc1)N1CCCC1	-5	97	96	91
CN(C)c1cc(N)c2cc(Cl)ccc2n1	-11	105	81	74
O=C(O)c1ccc2c(=O)n3c(nc2c1)CCC3	-4	/	84	94
CC(C)CCNC(=O)c1cnc2sc(N3CCCCC3)nn2c1=O	/	102	113	90
C/C=C(\C)C(=O)N1CCC(C(=O)c2ccccc2)CC1	0	100	96	71
CCCc1cnc2c(c1SCC(=O)N1CCC(C)CC1)c(=O)n(C)c(=O)n2C	/	97&103	119	84
O=C(COc1ccc(F)cc1)Nc1noc(-c2ccccc2)n1	4	100	/	/
CSc1nc(C)nc(Sc2ccccc2)c1C#N	10	125	110	101
N#CC(CO)(Cc1ccccc1)c1nc2ccccc2[nH]1 (centres undefined)	-42	/	100	73
Cc1[nH]c(C)c(S(=O)(=O)N2CCC(C(=O)Nc3ccc(Cl)cn3)CC2)c1C(=O)N1CCCCC1	-17	107	/	/
Cc1ccc(Cn2c(=O)n(Cc3ccccc3)c(=O)c3oc4ccccc4c32)cc1	/	104	109	87
O=C(CN1CCOCC1)NN=C1CCCCC1	-14	104	126	73
CCOC(=O)c1ccc(NC(=O)Cc2noc3ccc(C)cc23)cc1	-12	95	98	84
Cc1nn(C)c(C)c1CCN(C)C(=O)Nc1ccc2c(c1)OCO2	-10	101	/	/
O=S(=O)(c1ccc(-c2csc(=Nc3ccccc3)n2CCc2ccccc2)cc1)N1CCCC1	/	104	98	93
CC1CC(Nc2ccccc2)c2ccccc2N1S(=O)(=O)c1ccc(Br)cc1 (centres undefined)	/	101	113	103
Cc1cc(Nc2ccccc2)n(CCO)n1	-22	/	115	88
CC(C)(C)c1ccc2c(c1)NC(=O)CO2	/	102	91	83
COc1ccc(-c2n[nH]c(=S)n2C2CCCCC2)cc1OC	-20	99	90	75
Cc1ccccc1-n1c(SCC(=O)c2ccc(Cl)cc2)nc2[nH]ncc2c1=O	/	101	96	88
COc1ccc(/C=C\C(=O)NC2CC(=O)N(c3ccc(F)cc3)C2)cc1OC (centres undefined)	/	97	125	78
CCN(CC(=O)NCc1ccc(Cl)cc1)C(=O)c1c(C)noc1C	-12	/	84	95
CCC(C)(CC(=O)O)CC(=O)Nc1ccc(Cl)cc1 (centres undefined)	-4	102	130	73
Cc1ccc(Cl)cc1NC(=O)C1CCC(CNS(=O)(=O)c2cccc3nsnc23)CC1 (centres undefined)	-40	103	89	91
CCOCc1c(C(=O)N2CCN(c3ncccn3)CC2)oc2ccccc12	-12	/	92	90
Nc1cc(=O)[nH]c(SCc2csc(-c3ccccc3)n2)n1	-35	/	97	86
CCOc1ccc(NC(=O)C(CC)n2nc(-c3cc(C)ccc3C)ccc2=O)cc1 (centres undefined)	-4	101	/	/
Cc1nn(CC(=O)Nc2ccccc2F)c(=O)c2c(C)n(-c3ccc(Cl)cc3)nc12	/	103	89	77
Cc1cccc(OCCn2c(-c3cccc(C)c3)nc3ccccc32)c1	/	104	79	54
CC1CCN(C(=O)Cn2cc(SCC(=O)NCc3ccccc3Cl)c3ccccc32)CC1	/	107	118	90

3 compounds already listed, ordered by SMILES length, ascending.
molecule	HCMV UL50-53 inh	GIV Gai3 FP	Sa growth inh	Sa growth inh second temp
CCN(CC(=O)NCc1ccc(Cl)cc1)C(=O)c1c(C)noc1C	-12	/	84	95
COc1ccc(/C=C\C(=O)NC2CC(=O)N(c3ccc(F)cc3)C2)cc1OC (centres undefined)	/	97	125	78
Cc1ccc(Cl)cc1NC(=O)C1CCC(CNS(=O)(=O)c2cccc3nsnc23)CC1 (centres undefined)	-40	103	89	91

Next part.
molecule	HCMV UL50-53 inh	GIV Gai3 FP	Sa growth inh	Sa growth inh second temp
CCCCC(=O)NC(c1ccccc1OC)c1cc(Cl)c2cccnc2c1O (centres undefined)	-7	101	86	88
CCOc1ccc(C(=O)c2oc3ccccc3c2NC(=O)c2cc(=O)c3ccc(C)cc3o2)cc1	30	109	103	92
CCOc1cccc(/C=N\NC(=O)c2ccco2)c1O	-15	104	91	88
CCOc1ccc(N2C(=O)CC(Sc3nc4c(cc3C#N)CCC4)C2=O)cc1 (centres undefined)	-32	119	/	/
CC(=O)n1c(SCC(=O)Nc2ccccc2)nc2ccccc21	4	108	106	94
Cc1ccc(C(=O)Sc2nc(N)c(C#N)cc2C#N)c(C)c1	11	/	114	87
Cc1ccc(C(=O)OCN2C(=O)c3ccccc3C2=O)cc1NC(=O)c1ccco1	-19	/	80	97
O=C(NCC(c1cccs1)S(=O)(=O)c1cccs1)Nc1ccc(Cl)cc1 (centres undefined)	14	109	101	59
COC(=O)CN1C(=O)C2(C(C#N)=C(N)Oc3c2c(C)nn3-c2ccccc2)c2ccccc21 (centres undefined)	-14	102	/	/
COc1ccc(/C=C(\C#N)c2nc(-c3cc(Cl)ccc3OC)cs2)cc1	-9	111	101	102
CCc1ccc(NS(=O)(=O)c2[nH]ncc2C(=O)OC)cc1	19	101	89	77
O=C(Cc1ccccc1)Nc1ccc2oc(-c3ccc(Br)cc3)nc2c1	-28	104	117	87
C=CCN1C(=O)/C(=C/c2ccccc2F)S/C1=N/c1nnc(CC)s1	-37	105	/	/
CCc1ccc(N=Cc2c[nH]c3ccccc23)cc1	/	101	105	94
COC(=O)c1cccc(OCc2nn[nH]n2)c1	-17	105	70	87
Cc1nc(SCC(=O)N2CCN(c3ccccc3)CC2)[nH]c(=O)c1C	-14	104	108	86
CC1CCCCN1S(=O)(=O)c1ccc(F)c(C(=O)Nc2ccccc2C(F)(F)F)c1 (centres undefined)	/	100	99	90
c1ccc(CSc2ccc(-c3ccncc3)nn2)cc1	/	104	102	84
COC(=O)c1ccc(Cn2c(SCc3ccccc3F)nc3ccncc32)cc1	-14	95	112	77
CCC(=O)N1CCc2cc(Br)cc(S(=O)(=O)NCCc3ccccc3)c21	6	98	124	83

Continuation.
Values run as follows: HCMV UL50-53 inh, GIV Gai3 FP, Sa growth inh, Sa growth inh second temp
- CN(Cc1ccccc1)Cc1cc(=O)n2nc(C3CC3)sc2n1
  -6, 110, 102, 92
- O=c1c2c3c(sc2[nH]c(=S)n1Cc1ccccc1)CCC3
  /, 102, 91, 81
- CC1=C(C(=O)OCC(C)C)C(c2ccc(Cl)cc2)NC(=O)N1C (centres undefined)
  11, /, 133, 82
- COC(=O)c1ccccc1NC(=O)c1ccc2c(c1)sc1nc(-c3ccc(OC)cc3)cn12
  /, 104, 117, 88
- CCc1ccccc1NC(=O)CN1C(=O)c2c(c3ccccc3n2C)C1c1ccc(OC)cc1 (centres undefined)
  -10, 106, /, /
- Cc1onc(-c2ccccc2)c1C(=O)N(Cc1ccccn1)Cc1ccccn1
  -7, 106, 96, 85
- Cc1ccc(C)c(N(C)S(=O)(=O)c2ccc3[nH]cc(C(=O)NC4CCCC4)c(=O)c3c2)c1
  /, 106, 111, 85
- O=C(O)c1nccnc1C(=O)Nc1ccc(F)cc1Cl
  -34, 99, /, /
- Cc1cccc(-n2c(C)nc3cc(C(=O)NC4CCCCCC4)ccc32)c1
  /, 98, 71, 52
- CC1CCCCN1c1nnc(NC(=O)Cn2c(=O)oc3ccccc32)s1 (centres undefined)
  5, 104, 103, 86
- COc1ccccc1C(=O)c1c(N)c(-c2nc(-c3ccccc3)cs2)c2ccccn12
  -26, 103, 99, 80
- C(=Nc1nc2ccccc2nc1N1CCOCC1)N1CCN(C(c2ccccc2)c2ccccc2)CC1
  17, /, 102, 93
- O=C(Nc1cc(F)c(Br)cc1F)c1ccco1
  -2, 99, 81, 78
- CCS(=O)(=O)Nc1nc2n(n1)C(c1ccc(Cl)cc1)C=C(c1ccc(Br)cc1)N2 (centres undefined)
  -28, 104, /, /
- COCCOC(=O)C1=C(C)NC2=C(C(=O)CC(c3ccc(OC)cc3)C2)C1c1cccc([N+](=O)[O-])c1 (centres undefined)
  -22, 105, /, /
- CC1CCN(CC(=O)n2c3ccccc3c3ccccc32)CC1
  -1, 111, 91, 81
- Cc1cccc(-n2cc(-c3ccccc3)nc2SCC(=O)Nc2ccccc2Cl)c1
  /, 106, 95, 98
- Cc1cc2c(cc1S(=O)(=O)N1CCCC(C(=O)NC(C)(C)C)C1)OCC(=O)N2 (centres undefined)
  -27, 96, /, /
- CCOC(=O)c1c(/N=c2\oc3ccc(Cl)cc3cc2C(N)=O)sc2c1CCCC2
  -26, 105, /, /
- COc1ccccc1-c1c(C)nn2c(NCCN3CCCCC3C)cc(C)nc12 (centres undefined)
  /, 99, 106, 88
- CN(C(=O)CSC1=Nc2ccccc2C2=NC(c3ccccc3)C(=O)N12)C1CCCCC1 (centres undefined)
  /, 99, 83, 84
- CCOc1ccc2c(=O)c(-c3ccccc3)c(C)oc2c1
  -12, 101, 94, 90
- CC(C)c1ccc(NC(=O)CN2C(=O)C3CC=CCC3C2=O)cc1 (centres undefined)
  -10, /, 122, 91
- O=C(NCCc1ccccc1)C1(S(=O)(=O)c2ccc(Cl)cc2)CC1
  /, 109, 96, 97
- C#CCN1C(=O)S/C(=C/c2ccc(N3CCCCC3)cc2C)C1=O
  -15, 336, 113, 97
- CCc1nc(NCCCO)c2nnn(Cc3ccccc3F)c2n1
  -12, 104, 83, 85
- CC1CCc2c(sc3nnn(CC(=O)Nc4cccc(C(F)(F)F)c4)c(=O)c23)C1 (centres undefined)
  -4, 102, 98, 97
- CCOC(=O)c1cc(=O)c(-c2ccccc2)n[nH]1
  0, 108, 108, 99
- O=C(Nc1ccc(C(=O)OCc2cc(=O)n3c4c(sc3n2)CCCC4)cc1)c1ccc(F)cc1
  /, 98, 96, 91
- CCOC(=O)CNS(=O)(=O)c1cc(-c2nnc(Nc3cccc(Br)c3)c3ccccc23)ccc1C
  14, 111, /, /

Profiles, looked up by structure:
`COc1ccccc1-n1nnnc1SCC(=O)NC1CCCC1` across the screens: HCMV UL50-53 inh: 3; GIV Gai3 FP: 103; Sa growth inh: 110; Sa growth inh second temp: 86
`Cc1cccc(OCCn2c(-c3cccc(C)c3)nc3ccccc32)c1` across the screens: HCMV UL50-53 inh: /; GIV Gai3 FP: 104; Sa growth inh: 79; Sa growth inh second temp: 54
`CC(C)(C)c1ccc2c(c1)NC(=O)CO2` across the screens: HCMV UL50-53 inh: /; GIV Gai3 FP: 102; Sa growth inh: 91; Sa growth inh second temp: 83

Carrying on.
Values run as follows: HCMV UL50-53 inh, GIV Gai3 FP, Sa growth inh, Sa growth inh second temp
- Cc1ccc(Cl)c2sc(NC(=O)c3ccc(S(=O)(=O)N4CCCC4)cc3)nc12
  /, 96, 100, 89
- CCCc1cc(C(=O)Nc2sc(C)c(C)c2C(=O)OCC)no1
  -14, 100, 67, 64
- COc1ccc(N2CC(O)=C(c3nc4ccccc4c(=O)[nH]3)C2=N)cc1OC
  -20, 121, /, /
- Cc1c(Cl)ccc2c(C(=O)Nc3cc(C(C)(C)C)on3)cc(-c3ccccn3)nc12
  -9, 103, 118, 102
- Cc1ccccc1-c1nsc(SCC(=O)NCc2ccco2)n1
  -27, 102, 91, 93
- COc1ccccc1N1CCN(CCCNc2c(C)c(=O)n(C)c(=O)n2C)CC1
  -17, 108, /, /
- CCCC1C(=O)CC(C#N)(C#N)C(C#N)(C#N)C1C (centres undefined)
  -30, 109, 87, 67
- COc1ccc(C(CNC(=O)c2cc(-c3ccc(Br)cc3)on2)N(C)C)cc1OC (centres undefined)
  -8, 111, /, /
- C=CCNC(=O)/C=C/c1ccc(C(C)C)cc1
  /, 101, 77, 84
- COc1ccc(NC(=O)CSc2c(C)nn(-c3nnc(C)c(=O)[nH]3)c2C)cc1
  10, 107, 87, 99
- CCC12CN3CC(CC)(CN(C1)C3c1ccccc1)C2=O (centres undefined)
  15, 116&99, /, /
- O=C(CSc1nnnn1-c1ccccc1)N1c2ccccc2CCc2ccccc21
  /, 97, 91, 91
- CCOC(=O)c1sc2ncnc(NC3CCN(Cc4ccccc4)CC3)c2c1C
  -5, 104, /, /
- Cc1noc(C)c1COc1ccc(C(=O)NCCNc2ncc(C(F)(F)F)cc2Cl)cc1
  -19, /, 123, 94
- COc1ccc(OC)c(NC(=O)C2CCCN2S(=O)(=O)c2ccc3c(c2)CC(C)N3C(C)=O)c1 (centres undefined)
  2, 108, /, /
